Screening results (PubChem)
H5N1 antiviral: MDCK cell protection from H5N1 avian flu; cytopathic effect, luminescence, 72 h; active compounds read high; no value below 0 was filed and about half of the inactive calls have no number; reference of the scale not given here; inhibition, % at 50 µM; 96,000 tested, 0.07% active; AID 740; in the data active = inhibition above about 25%
Starred values were filed as active, the others as inactive; i = inactive. This is a subset; the hit share may differ from the screen's.

smiles | H5N1 antiviral
CN(CCCNC(=O)C1CCN(S(=O)(=O)N2CCC3(CC2)OCCO3)CC1)Cc1ccccc1 | 0.9
COC(=O)c1cc2oc(C)cc2n1CC(=O)Nc1cc(C)cc(C)c1 | 1.0
O=c1c2ccccc2c2ccccc2c(=O)n1Cc1ccco1 | 8.2
O=C(NCCO)C1(c2ccccc2)CCCC1 | 0.4
CC(=O)C1=C(O)C(=O)N(c2nccs2)C1c1ccc(Br)cc1 (configuration not stated) | 0.8
Cn1c(=O)n(Cc2ccccc2)c(=O)c2c1nc(NCC1CCCO1)n2Cc1ccccc1 (configuration not stated) | 3.1
CN1C(=O)CSc2ccc(NC(=O)NCc3cccnc3)cc21 | i
CCOCC(=O)Nc1nc(-c2ccccc2)c(CC)s1 | i
COc1ccc(N(CC(=O)NCc2ccco2)S(=O)(=O)c2c(C)nn(C)c2C)cc1 | 1.7
CCN(CC)CCCN=Cc1c(O)n(CCc2ccc(OC)c(OC)c2)c(=O)[nH]c1=O | 0.2
CN(C)CCCN1C(=O)c2oc3ccccc3c(=O)c2C1c1cccs1 (configuration not stated) | i
CCC(CC)C1C(C#N)=C(N)Oc2cc(C)oc(=O)c21 (configuration not stated) | 0.1
Cc1ccc(CNC(=O)Cc2cccs2)cc1 | 0.4
CCOC(=O)CSc1cc(=O)n(CC)c2ccccc12 | 0.4
Cc1ccc(-c2[nH]nc3c2C(c2ccoc2)C(C#N)=C(N)O3)cc1C (configuration not stated) | i
Cn1ncc(C#N)c1NC(=O)C1CC(c2c(F)cccc2Cl)=NO1 (configuration not stated) | i
CN(Cc1ccccc1)C(=O)CSc1nc2ccccc2c(=O)n1Cc1ccco1 | 10.0
COc1ccccc1/C=C/CN1CCOCC1 | i
CCOC(=O)C1=C(C)NC(=O)NC1c1ccccc1Cl (configuration not stated) | i
COc1ccc(S(=O)(=O)N2CCCC2C(=O)Nc2ccc(C)cc2)cc1 (configuration not stated) | i
c1cncc(-c2nnc(-c3cccs3)o2)c1 | 0.9
Cn1c(=O)c2c(nc(N3CCc4ccccc4C3)n2Cc2ccc(Br)cc2)n(C)c1=O | i
O=S1(=O)C[C@@H](O)[C@@H](Nc2ccc(Cl)cc2)C1 | 0.9
CCOC(=O)CC(=O)CSc1nc(-c2ccc3c(c2)OCO3)cc(C(F)(F)F)c1C#N | 0.1
CCOC(=O)c1nn(-c2ccc(C)cc2)c(C)c1C(C)=O | 1.1
CCn1c(O)c2ccc(C(=O)N=NC(=O)c3cccnc3)cc2c1O | 1.5
CSc1nncc(-c2ccc(F)c(F)c2)n1 | 23.0
O=C(Cc1cccs1)NCc1ccccc1F | 0.2
COc1ccc(OC)c2c(C)cc(N3CCN(C(=O)c4ccc(Cl)cc4)CC3)nc12 | i
O=c1cc(N2CCCCC2)c(-c2ccccc2)nn1Cc1cccc(Cl)c1 | 0.1

Next part.
smiles | H5N1 antiviral
Cc1ccc(Sc2nnc(-c3ccccc3)cc2C#N)cc1 | 2.8
O=C(Nc1nncs1)c1ccc(S(=O)(=O)c2ccccc2)cc1 | 0.9
CN(C)CCn1c(C(=O)O)cc2ccccc21 | i
CCOC(=O)c1cnc(-n2nc(C)cc2C)nc1NCCO | 0.3
CCc1nnc(NC(=O)CN2C(=O)c3ccccc3C2=O)s1 | i
Cc1cc(C)n(-c2cc(N3CCN(C(=O)c4cccc(Br)c4)CC3)ccc2[N+](=O)[O-])n1 | i
N#CCCN1CCN(C2=NC(=O)C(=C3CCCCC3)S2)CC1 | i
O=[N+]([O-])c1ccc(/C=N/N/C(=N/c2ccccn2)c2ccccn2)cc1 | 0.4
CCOc1ccccc1-n1cnc2cc(C(=O)NCc3ccco3)ccc21 | 0.2
COc1ccc(C(=O)NC(=S)NNC(=O)Cc2cccs2)cc1 | 1.8
Nc1cc(N)nc(SCC(=O)N2CCCCC2)n1 | i
COc1ccccc1-c1nnc(NC(C)=O)s1 | 0.2
CCn1c(O)c(C(c2ccccn2)c2c(O)n(CC)c(=S)[nH]c2=O)c(=O)[nH]c1=S | 0.8
Nc1cc(-c2ccc(Cl)cc2)nn1S(=O)(=O)c1ccc(Cl)cc1 | i
Cc1ccc(NC2=CC(=O)CC(C)(C)C2)c(N)c1 | i
CC1(C)CC2(CC(c3cccs3)c3cc(Cl)c(O)cc3O2)NC(=S)N1 (configuration not stated) | 0.3
O=C(c1cnsn1)N1CCN(c2ccccn2)CC1 | i
CC(=O)Nc1ccc(NC(=O)CN(C)CCC#N)cc1 | 0.3
CC1=C(C(=O)Nc2ccc(Cl)cc2)C(c2ccncc2)C(C#N)=C(SCC(N)=O)N1 (configuration not stated) | i
Cc1c(NC(=O)C(C)OC(=O)[C@@H](NC(=O)c2ccccc2)C(C)C)c(=O)n(-c2ccccc2)n1C (some centres not stated) | 0.5
C/C(=C\C(=O)c1ccccc1)Nc1cccc(O)c1 | 4.2
CCc1c(C)[nH]n(-c2ccc(Oc3ccccc3)c(S(=O)(=O)O)c2)c1=O | 0.8
Cc1oc(/C=N/NC(=O)CN(c2ccccc2Br)S(C)(=O)=O)cc1Br | 1.7
O=C(Nc1nc(-c2cc(Cl)sc2Cl)cs1)c1cccs1 | i
CC(C)N(Cc1nc(-c2ccc(Cl)cc2)no1)C(=O)C(c1ccccc1)c1ccccc1 | 0.9
Cc1ccc(CN(C)C(=O)C2CCCN2C(=O)c2cccs2)o1 (configuration not stated) | 0.4
O=C(NCCN1CCN(c2ccccc2)CC1)C1CCN(S(=O)(=O)N2CCOCC2)CC1 | 0.1
CC(=O)Nc1cccc(C(=O)OC(C(=O)c2ccc(C)cc2)c2ccccc2)c1 (configuration not stated) | 0.3
O=C1CC(N2CCN(C(c3ccccc3)c3ccccc3)CC2)C(=O)N1Cc1ccc(N2CCCC2=O)cc1 (configuration not stated) | 1.9
CC(C)Cn1cnc2c(c1=O)c1nc3ccccc3nc1n2Cc1ccc2c(c1)OCO2 | i

Next section:
smiles | H5N1 antiviral
CC1=CC(=O)C=C(C)C1=NOC(=O)c1cccc([N+](=O)[O-])c1 | i
CCc1ccc(NC(=O)N(C2CCCCC2)C(C)c2cccnc2)cc1 (configuration not stated) | 0.5
CCOC(=O)c1cnc(SCC)[nH]c1=O | 0.6
Cn1c(=O)c(=O)n(C)c2cc(S(=O)(=O)N3CCOCC3)ccc21 | 0.5
CCOC(=O)c1c(C)n(C)c2c(C)cc(O)c(OC(C)=O)c12 | 1.9
COc1cccc(CNc2nc3nc(C)cc(=O)n3[nH]2)c1 | i
CCOC(=O)c1sc(NC(=O)C(CC)Sc2nnc3c4ccccc4n(C(C)C)c3n2)nc1C (configuration not stated) | 0.5
CC(C)Cn1c(N)c(C(=O)CSc2ccc3c(c2)OCCO3)c(=O)n(C)c1=O | 1.5
NC(=O)c1ccccc1NC(=O)CS(=O)(=O)Cc1ccccc1 | i
CCCCCCOc1ccc(/C(N)=N/O)cc1 | i
CCOC(=O)c1sc(NC(=O)c2ccccc2)cc1C | i
N/C(=N\OC(=O)c1cccc(F)c1)c1ccccc1 | i
Cc1cc(Cl)c(OCCCSc2nc(C)cc(=O)[nH]2)c(Br)c1 | 0.6
O=C(Nc1ccc(N2CCN(C(=O)c3cccs3)CC2)c(Cl)c1)c1ccco1 | i
c1cc2c(nn1)CCc1nonc1-2 | 0.1
COc1ccccc1CN1CCN(C(=O)c2ccncc2)CC1 | 0.3
CCCCC(=O)N=c1sc2cc(S(C)(=O)=O)ccc2n1C | i
CC(C)(C)c1nc(CN2CCOCC2)cc(CN2CCOCC2)c1O | i
CCOCC(=O)Nc1c(C(=O)Nc2ccccc2OC)oc2ccccc12 | 1.7
N#C/C(=C1/CCCCCN1)c1nc2ccccc2[nH]1 | 1.1
Cc1ccc(-n2ccnc2SCC(=O)O)c(C)c1 | i
Cc1nnc(NC(=O)c2ccc(S(=O)(=O)N(C)Cc3ccccc3)cc2)o1 | 0.4
CCCCN(C)C(=O)c1cc2cc3ccc(OC)cc3nc2s1 | i
COCCn1nnnc1C(c1cccc(C#N)c1)N1CCCCCC1 (configuration not stated) | 0.8
c1ccc(N2CCN(c3nc(NCc4ccco4)c4ccccc4n3)CC2)cc1 | i
Cc1ccc2cc(/C=C3\N=C(c4ccccc4)OC3=O)c(N3CCOCC3)nc2c1 | i
COc1ccc(/C=C(/NC(=O)c2ccccc2)c2nc3ccccc3[nH]2)cc1OC | i
CC(c1ccccc1)N1CC(C(=O)N2CCN(c3ccc(F)cc3)CC2)CC1=O (configuration not stated) | 0.0
C/[N+]([O-])=C\c1coc2ccccc2c1=O | i
CCOc1ccccc1C(=O)OCC(=O)Nc1ccc(N2CCCCC2)cc1 | i

Next entries follow.
smiles | H5N1 antiviral
COc1ccccc1NC(=O)CN(Cc1ccco1)C(=O)c1ccc(-n2nc(C)cc2C)cc1 | i
O=C(NCc1ccc(F)cc1)C1CCN(C(=O)NCc2ccccc2)CC1 | i
CCC1CCCCN1C(=O)CSc1nc(N)c(NC(=O)c2ccco2)c(=O)[nH]1 (configuration not stated) | 0.4
CCCc1nc2n[nH]c(N)c2c2c1CCCC2 | 0.5
COc1ccccc1Cn1c(=S)[nH]c2cc(C(=O)N3CCN(C)CC3)ccc2c1=O | 0.8
O=c1oc2ccccc2c(O)c1/C=N/c1ccccn1 | i
COc1ccc(C(C(=O)NC2CCCCC2)N(C(=O)c2sc(C)nc2C)c2ccc(C(C)=O)cc2)cc1 (configuration not stated) | i
Cc1cccc(OCCn2c(S(=O)(=O)O)nc3ccccc32)c1 | i
O=C(CCNC(=O)c1ccco1)NCc1ccccc1 | 0.8
CC(C)(C)C1CCc2onc(C(=O)N3CCOCC3)c2C1 (configuration not stated) | 1.5
Cc1cc(NC(=O)CSC2=Nc3ccccc3C3=NC(Cc4ccccc4)C(=O)N23)n[nH]1 (configuration not stated) | 3.1
COc1nc(OC)nc(N2CCC(C(=O)NC3CCCCCC3)CC2)n1 | 0.9
CCn1c2ccccc2c2cc(NC(=O)c3cc(OC)c(OC)c(OC)c3)ccc21 | i
CCOC(=O)C1CCN(C(=O)CC(C)c2ccccc2)CC1 (configuration not stated) | i
O=C(CCn1ccc2ccccc21)NC1CCCc2ccccc21 (configuration not stated) | 2.2
COc1cc(C(=S)N2CCCC2)cc(Cl)c1O | 1.0
Cc1nnc(OC(C)C)c2nn(-c3ccccc3F)c(C)c12 | 1.0
COc1cccc(OC)c1C(=O)N1CCN(Cc2ccncc2)CC1 | i
O=C1OC2CC3CC1CC(O)(C3)C2 (configuration not stated) | i
CC(Oc1cc(C(F)(F)F)cc(C(F)(F)F)c1)C(=O)NC(N)=O (configuration not stated) | i
CCN(CC)CCN=C1CCCc2ccccc2N1 | i
COC(=O)c1ccccc1NC(=O)c1cc(-c2ccc(O)cc2)on1 | 1.5
CCC(C)(C)n1nnnc1CN(Cc1ccco1)Cc1cc2cc3c(cc2[nH]c1=O)OCO3 | 0.7
CCCCNC(=O)C1CC(=O)N(C2CCCCC2)C1 (configuration not stated) | 0.0
Cc1ccccc1NS(=O)(=O)c1cc(C(=O)NCCC2=CCCCC2)ccc1Cl | 2.4
Cn1c(=O)oc2cc(S(=O)(=O)N3CCCC(C(=O)N4CCc5ccccc5C4)C3)ccc21 (configuration not stated) | 2.1
COc1cccc(-n2c(SCC#N)nnc2-c2cnccn2)c1 | i
CC(Sc1nc2nn(-c3ccccc3)c(=O)c-2c2n1CCCCC2)C(N)=O (configuration not stated) | 0.1
Cc1cc2nnc(SCC(=O)NCc3cccs3)n2c(N)n1 | i
C/C(=N\O)c1ccc2c3ccccc3n(C)c2c1 | i

Four entries from above, set out differently.
COC(=O)c1ccccc1NC(=O)c1cc(-c2ccc(O)cc2)on1
- H5N1 antiviral: 1.5

CCC(C)(C)n1nnnc1CN(Cc1ccco1)Cc1cc2cc3c(cc2[nH]c1=O)OCO3
- H5N1 antiviral: 0.7

CCCCNC(=O)C1CC(=O)N(C2CCCCC2)C1 (configuration not stated)
- H5N1 antiviral: 0.0

Cc1ccccc1NS(=O)(=O)c1cc(C(=O)NCCC2=CCCCC2)ccc1Cl
- H5N1 antiviral: 2.4

Continuation.
smiles | H5N1 antiviral
CCn1c(SCC(=O)Nc2ccccc2N2CCOCC2)nnc1-c1ccccc1O | i
COC(=O)CCC(=O)Nc1ccccc1C(=O)Nc1ccccc1 | i
CCOC(=O)c1c(NC(=O)COc2ncnc3sccc23)sc2c1CCC2 | i
CCOc1cccc(CNc2ccc(O)cc2)c1OCc1ccc(Cl)cc1 | 0.9
Cc1noc(/C=C/c2ccco2)c1S(=O)(=O)N1CCC(C(=O)NC(C)c2ccccc2)CC1 (configuration not stated) | i
CCOc1cc(CN2CCN(C(=O)c3ccco3)CC2)ccc1OC | i
Cc1ccc(OCC(=O)NNC(=O)C2CCN(c3ncccn3)CC2)cc1 | i
CCOC(=O)c1c(C)nc(-c2ccccc2)nc1NC(C)=O | 0.5
O=S(=O)(O)c1nc2ccccc2n1Cc1ccc(Cl)cc1Cl | 0.8
COC(=O)c1cc(NC(=O)CC2C(=O)NCCN2C(=O)c2ccccc2)cc(C(=O)OC)c1 (configuration not stated) | i
c1csc(-c2ccc3ccccc3n2)c1 | 2.5
COC(=O)CCSCC(=O)Nc1cc(C)on1 | 0.3
Cc1cccc(-n2nnnc2SCC(=O)c2cc(C)n(CC3CCCO3)c2C)c1 (configuration not stated) | i
O=c1[nH]c(NCc2ccccc2)nc2c1CCC2 | 0.8
Nc1[nH]ncc1C(=O)Nc1cccc(C(F)(F)F)c1 | 1.4
Cc1ccc(NCN2C(=O)c3ccccc3C2=O)c(C)c1 | 0.5

Some of the entries above, set out differently.
Cc1noc(/C=C/c2ccco2)c1S(=O)(=O)N1CCC(C(=O)NC(C)c2ccccc2)CC1 (configuration not stated)
  H5N1 antiviral: i
CCOc1cc(CN2CCN(C(=O)c3ccco3)CC2)ccc1OC
  H5N1 antiviral: i
